Mtb hypoxia rep = inhibitors of hypoxia-regulated fluorescent reporter in Mycobacterium tuberculosis | M. tuberculosis hypoxia-regulated fluorescent reporter, fluorescence | fluorescence inhibition, % (no concentration beside the values) | 0.1% of 300,000 active | AID 1159583;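 active means 35 to 45% if threefold the growth effect, above 45% if 1.5-fold the growth effect; inactive means the rest, general growth blockers included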;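 further: wells of about 50 µL received 100 nL stock; 0% = vehicle wells and 100% = reference inhibitor wells; whole bacteria with a GFP reporter of the hypoxia response; strong numbers were not always called active; many hits fall short of the cut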
ugtP null kill = kills S. aureus RN4220 lacking UgtP. S. aureus RN4220 ugtP deletion, OD600 growth, 16 h; some inactives read as strong as hits. growth inhibition, % (test concentration not listed). 0.54% of 330,000 active. AID 1259309;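 active means z-score under -3 and OD600 up to 0.15 on both plates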;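 further: plate controls were untreated wells for no effect and antibiotic for full effect; wells of about 80 µL received 100 nL stock; the first replicate is given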
Autofluor counter = compound fluorescence in toxin protease inhibitor counterscreen | AID 624483 | compound autofluorescence counterscreen, microsphere flow cytometry; active compounds read high | fluorescence intensity (concentration not given with the values) | 3.1% of 360,000 active;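 active means at least 3 SD above the mean of all compounds, about 16000 in these data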;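 further: 100 nL of 1 mM stock went into each well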
Sa RN4220 lethal = S. aureus RN4220 growth inhibition; OD600, 16 h; inhibition, % (no concentration beside the values); 0.33% of 330,000 active; AID 1259311;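 active means z-score of -3 or lower and OD600 up to 0.18 on both plates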;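 further: plate controls were untreated cells for no effect and reference antibiotic for full effect; stock transfer was 100 nL into about 80 µL; one replicate is shown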
PrP UTR inh = inhibition of PrP 5' UTR reporter expression | cell-based PrP 5' UTR mRNA reporter, plate reader | inhibition, % (no concentration beside the values) | 0.35% of 340,000 active | AID 488862;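 active means every replicate at 50% or more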;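 further: 0 = median of the neutral control wells; tested in H4 reporter cells; numbers are from one replicate; inactives centre near -14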
BJeLR viability = kills HRASV12-expressing BJeLR cells. BJeLR (HRASV12) viability, CellTiter-Glo ATP luminescence, 48 h; reference of the scale not given here. inhibition, % (test concentration not listed). 0.17% of 300,000 active. AID 1554;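 active means replicate mean above 50%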;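 further: 50 nL library stock added to about 25 µL; numbers are from one replicate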
Mtb hypoxia rep growth = further read-out of Mtb hypoxia rep, marked with its call; growth inhibition, %; measured here: M. tuberculosis growth (absorbance);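 0% = vehicle and 100% = reference antibiotic; read after six days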
Numbers without * were called inactive; . = not tested or not shown.

no.	smiles	Mtb hypoxia rep	Mtb hypoxia rep growth	ugtP null kill	Autofluor counter	Sa RN4220 lethal	PrP UTR inh	BJeLR viability
1	COc1ccc(CCNC(=O)Cc2ccc(NC3=NC4CS(=O)(=O)CC4S3)cc2)c(OC)c1 (stereo not drawn)	8	5	4	6020	-9.6	-12	-12
2	CCC(=O)c1ccc(OCC(=O)NNC(=O)c2cc(C)oc2C)cc1	-10	0	2	4564	1.9	-18	.
3	C=C1CCC[C@]2(C)C[C@H]3OC(=O)C(CN[C@@H](C)c4ccccc4)[C@H]3CC12 (stereo partly drawn)	1	-1	-10	2964	2.2	-36	-2
4	O=C(N/N=C/c1cc2c(cc1Br)OCO2)c1c[nH]c2ccccc12	.	.	.	2285	.	-10	0
5	CC(=O)Nc1ccc2c(c1)nc(CCN1CCC(C)CC1)n2C	3	-3	-1	14366	-0.7	-8	-5
6	CCC(=O)O[C@]1(C(=O)CCl)C(C)CC2C3CCC4=CC(=O)C=C[C@]4(C)[C@@]3(F)C(O)C[C@@]21C (stereo partly drawn)	-4	3	-1	.	2.2	.	.
7	Cc1ccc(CSCC(=O)Nc2ccccc2C(=O)O)cc1	.	.	2	4253	0.4	-23	9
8	O=c1[nH]c(=S)n(C2CCCCC2)c(O)c1/C=N/N1CCOCC1	13	3	10	3472	2.2	-6	0
9	N#CCc1ccc(NS(=O)(=O)c2ccc(C3CCCCC3)cc2)cc1	0	-4	-25	9050	-4.4	-12	-7
10	Cn1c(=O)c2[nH]c(-c3ccccc3Cl)c(O)c2n(C)c1=O	1	1	1	2611	3.8	-48	-3
11	c1ccc2[nH]c(CN3CCN(c4ncnc5c4oc4ccccc45)CC3)nc2c1	.	.	-5	4986	1.0	5	.
12	NC(=O)C1CC(=O)N(c2ccc(OCc3ccc(Cl)cc3)cc2)C1 (stereo not drawn)	15	-11	8	3501	4.0	-104	-11
13	CC(C(=O)N1CCc2ccccc21)N1CCN(S(=O)(=O)c2ccc(C(F)(F)F)cc2)CC1 (stereo not drawn)	10	6	7	8813	-3.5	-26	.
14	CCn1c2ccccc2c2cc(NC(=O)COC(=O)c3cccc(S(=O)(=O)NC)c3)ccc21	5	1	-7	2385	-0.2	-7	-1
15	Cc1cccc(NC(=O)CSc2nnc(-c3cc(C)n(-c4ccccc4)c3C)o2)c1C	.	.	-11	3484	-15	-13	6

Carrying on:
no.	smiles	Mtb hypoxia rep	Mtb hypoxia rep growth	ugtP null kill	Autofluor counter	Sa RN4220 lethal	PrP UTR inh	BJeLR viability
16	CCc1ccc(-c2cc(C(=O)N/N=C/c3c[nH]c4ccccc34)[nH]n2)cc1	.	.	.	3344	.	-7	27
17	N#CCSc1nc(-c2ccccc2)nc2ccc(F)cc12	-1	-6	4	3093	3.2	-11	6
18	CC(C)(C)Nc1nc(NC(C)(C)C)nc(-n2ccnc2)n1	.	.	-4	2715	-5.2	-20	.
19	N#C/C(=C(/O)CN1CCCC1)c1nc(-c2ccccc2)cs1	16	9	9	7691	2.5	-51	-2
20	Cc1ccc(S(=O)(=O)N2[C@@H](c3ccc(F)cc3)C(C(=O)O)=C[C@H]2CC2CCCC2)cc1	0	-2	-12	3056	13	-13	.
21	CCCCn1nc(C(=O)N(C)C2CCCCC2)c2ccccc2c1=O	8	5	-1	9223	2.6	-14	.
22	CCCN(CCC)CC(O)CN1C(=O)NC(C)(C)C1=O (stereo not drawn)	3	-3	8	4285	3.8	-17	2
23	COc1ccc(N2CCN(C(=O)COCc3cc(-c4ccc5c(c4)OCO5)on3)CC2)cc1	-7	-15	-3	4643	-0.5	-6	-7
24	CCOC(=O)c1c2n(c3ccc(O)cc13)CCC2	.	.	-2	4203	0.1	-23	-2
25	COC(=O)CNC(=O)c1ccc2c(c1)S(=O)(=O)c1ccccc1C2=O	-1	10	-9	2969	6.7	-20	-1
26	COc1ccc(O)c(/C=N/n2c(-c3ccco3)csc2=Nc2cccnc2)c1	.	.	.	1861	.	-17	5
27	CCCCn1c(N)c(N(CC(C)C)C(=O)c2oc3ccc(OCC)cc3c2C)c(=O)[nH]c1=O	-10	1	-4	6349	-2.8	6	1
28	CCOP(=O)(OCC)C(Cc1ccccc1)NC(C)=O (stereo not drawn)	-4	5	6	6476	4.4	-14	1
29	NC(=S)NN=Cc1c[nH]c2ccc(OCc3ccccc3)cc12	.	.	-15	.	8.2	.	.
30	COc1ccc(OC)c(NC(=O)CC2(CC(=O)O)CCCC2)c1	-7	-2	3	5040	3.6	-13	5

Compound profiles, as listed above. Order of screens: Mtb hypoxia rep | Mtb hypoxia rep growth | ugtP null kill | Autofluor counter | Sa RN4220 lethal | PrP UTR inh | BJeLR viability
Record of `Cc1ccc(S(=O)(=O)N2[C@@H](c3ccc(F)cc3)C(C(=O)O)=C[C@H]2CC2CCCC2)cc1` : 0 | -2 | -12 | 3056 | 13 | -13 | .
Record of `COc1ccc(N2CCN(C(=O)COCc3cc(-c4ccc5c(c4)OCO5)on3)CC2)cc1` : -7 | -15 | -3 | 4643 | -0.5 | -6 | -7

A different layout for nine compounds above.
16: CCc1ccc(-c2cc(C(=O)N/N=C/c3c[nH]c4ccccc34)[nH]n2)cc1
17: N#CCSc1nc(-c2ccccc2)nc2ccc(F)cc12
18: CC(C)(C)Nc1nc(NC(C)(C)C)nc(-n2ccnc2)n1
19: N#C/C(=C(/O)CN1CCCC1)c1nc(-c2ccccc2)cs1
20: Cc1ccc(S(=O)(=O)N2[C@@H](c3ccc(F)cc3)C(C(=O)O)=C[C@H]2CC2CCCC2)cc1
21: CCCCn1nc(C(=O)N(C)C2CCCCC2)c2ccccc2c1=O
22: CCCN(CCC)CC(O)CN1C(=O)NC(C)(C)C1=O (stereo not drawn)

assay / entry	16	17	18	19	20	21	22
Mtb hypoxia rep	.	-1	.	16	0	8	3
Mtb hypoxia rep growth	.	-6	.	9	-2	5	-3
ugtP null kill	.	4	-4	9	-12	-1	8
Autofluor counter	3344	3093	2715	7691	3056	9223	4285
Sa RN4220 lethal	.	3.2	-5.2	2.5	13	2.6	3.8
PrP UTR inh	-7	-11	-20	-51	-13	-14	-17
BJeLR viability	27	6	.	-2	.	.	2

23: COc1ccc(N2CCN(C(=O)COCc3cc(-c4ccc5c(c4)OCO5)on3)CC2)cc1
24: CCOC(=O)c1c2n(c3ccc(O)cc13)CCC2

assay / entry	23	24
Mtb hypoxia rep	-7	.
Mtb hypoxia rep growth	-15	.
ugtP null kill	-3	-2
Autofluor counter	4643	4203
Sa RN4220 lethal	-0.5	0.1
PrP UTR inh	-6	-23
BJeLR viability	-7	-2

(continued)
no.	smiles	Mtb hypoxia rep	Mtb hypoxia rep growth	ugtP null kill	Autofluor counter	Sa RN4220 lethal	PrP UTR inh	BJeLR viability
31	O=[N+]([O-])c1cccc2c([As](=O)(O)O)cccc12	5	7	12	2938	8.7	-6	7
32	Cc1nnc(-c2cnn(C)c2N)n1Cc1ccc(Cl)cc1	.	.	5	4136	2.8	0	-3
33	COC(=O)CCC(=O)OC1(C)C(=O)C2=CN(CCCOC(C)C)C(c3ccc(OC)cc3)=CC2=C(Br)C1=O (stereo not drawn)	.	.	.	2907	.	-11	6
34	COc1ccc(C2C(=O)c3ccccc3C2=Nc2ccc(Br)cc2)cc1 (stereo not drawn)	18	-2	13	3663	3.0	-22	6
35	Cc1ccc(NC(=O)CN(C)C(=O)Cn2cc(C(F)(F)F)cc(Cl)c2=O)cc1	9	4	2	2204	-1.5	-19	-2
36	O=C(NN=Cc1ccccc1O)c1ccncc1	12	3	-1	.	7.1	.	.
37	CCCOc1ccc(/C=C/C(=O)NC2CCCCC2)cc1OC	5	3	0	3434	1.2	-54	2
38	CC(C)COc1ccc(C(=O)Nc2ccc([N+](=O)[O-])cc2)cc1	-4	5	3	3344	-2.3	-37	2
39	Cc1cc(C)cc(C(=O)N(c2ccccn2)C(C)c2ccco2)c1 (stereo not drawn)	6	19	4	5963	6.5	-27	6
40	O=C(Nc1cccc2ncccc12)c1ccc(OCc2ccccc2)cc1	1	3	9	4388	7.7	-26	0
41	CC1CN(CC(=O)Nc2nc3ccccc3s2)CC(C)O1 (stereo not drawn)	13	5	9	3695	1.3	-15	10
42	CC(CCc1ccco1)NC(=O)Nc1cccc(F)c1 (stereo not drawn)	10	10	-4	11240	-1.2	-21	2
43	COC(=O)COc1ccc(Cl)cc1C1Nc2ccccc2C(=O)N1c1ccc(OC)cc1 (stereo not drawn)	-5	5	-15	9080	-9.7	-12	1
44	O=C(O)c1cn(Cc2ccccc2Cl)c2ccc(S(=O)(=O)N3CCOCC3)cc2c1=O	16	2	2	4390	6.2	-11	-3
45	CCN(CC)S(=O)(=O)c1ccc(C(=O)NC(=S)N(CCO)Cc2ccccc2)cc1	4	-1	1	4056	-1.0	-27	-2

Remaining list, next part.
no.	smiles	Mtb hypoxia rep	Mtb hypoxia rep growth	ugtP null kill	Autofluor counter	Sa RN4220 lethal	PrP UTR inh	BJeLR viability
46	CCc1ccccc1NC(=O)c1ccc(Cn2cc([N+](=O)[O-])cn2)cc1	5	6	4	7443	2.3	-11	2
47	CCCCNc1nc2c(c(=O)n(C)c(=O)n2C)n1CCC	9	1	13	5894	4.0	-5	-3
48	CCN(CCO)C(=O)CC1C(=O)NCCN1Cc1c(F)cccc1Cl (stereo not drawn)	0	12	6	3280	2.1	-13	2
49	O=C(C(=O)N1CCCCC1)c1cn(CC(=O)N2CCCCCC2)c2ccccc12	3	4	-3	8735	0.1	-6	-7
50	C=CCNC(=O)c1c(Cl)cccc1Cl	14	11	-4	3365	-14	-9	5
51	Cc1cc(OCC(=O)NC2CC(C)(C)NC(C)(C)C2)c2c(C)cc(=O)oc2c1	-6	9	-1	4012	0.3	-10	10
52	O=C(OCc1nnc(-c2cccs2)o1)c1cccnc1Cl	5	6	5	3046	3.0	-13	.
53	COc1c(C)cc(C(=O)C2CCCN(C(=O)c3csc(C)n3)C2)cc1C (stereo not drawn)	2	6	7	5329	4.8	-16	7
54	COC(=O)CC1C(=O)NCCN1C(=O)c1ccc2oc(C(C)C)nc2c1 (stereo not drawn)	-1	-6	8	5261	4.0	-5	3
55	Cn1c(CC(=O)Nc2cccc(Cl)c2Cl)nnc1SCC(=O)NC1=NCCS1	5	-5	14	3523	0.9	-23	8
56	CC1CCC(NC(=O)Cn2c3c(c(-c4ccccc4Cl)cc2=O)CCC3)CC1 (stereo not drawn)	5	13	-13	5618	-4.5	2	7
57	Cc1cc(SCC(=O)NN=Cc2ccc(O)cc2O)c(C)cc1Br	6	9	32	.	-9.9	.	.
58	CCOC(=O)CC(Nc1nc(N2CCOCC2)nc(N2CCOCC2)n1)c1ccccc1Cl (stereo not drawn)	.	.	-2	4795	-7.0	-27	-2
59	Cc1nn(CC#N)c(=O)n1-c1ccccc1	.	.	0	4673	24	-8	1
60	CCOC(=O)c1c(N)sc2c1CCCC2	16	7	-3	4256	4.4	-8	-10

Next results follow.
no.	smiles	Mtb hypoxia rep	Mtb hypoxia rep growth	ugtP null kill	Autofluor counter	Sa RN4220 lethal	PrP UTR inh	BJeLR viability
61	O=C(Nc1ccc(N2CCOCC2)cc1)c1cc(-c2ccncc2)nc2ccccc12	-10	-6	-2	4382	2.1	-21	-4
62	CCc1nc2nc(C)c(NS(=O)(=O)c3ccc(C4CCCCC4)cc3)c(=O)n2[nH]1	8	7	4	2802	1.7	-4	-3
63	COc1ccc(C(C)=NNS(=O)(=O)c2cc(C)ccc2C)c(OC)c1	12	15	0	.	8.4	.	.
64	CCCC(=Nc1ccccc1)C1=C(O)C(C(=O)OC)C(C)(C)CC1=O (stereo not drawn)	-1	-9	3	8018	2.2	1	3
65	COc1ccc(C(=O)N2CCOC2CNC(=O)C(=O)NCc2ccc3c(c2)OCO3)cc1 (stereo not drawn)	-1	12	1	4354	4.9	-19	-16
66	NNc1nc2ccc(F)cc2s1	0	4	-4	2585	8.9	-69	-6
67	CSc1ccccc1NC(=O)CN(C)C(=O)C1CCN(C(=O)Nc2ccccc2)CC1	9	4	10	.	4.6	-9	7
